Compound activity from PubChem BioAssay.
miR-21 reporter: qHTS Assay for Modulators of miRNAs and/orActivators of miR-21. HeLa miR-21 FLuc reporter, luciferase, 48 h. Potency, µM (doses to about 38.3 µM), inactives show top-dose reporter change, positive = more light. 340,000 tested, under 10 active. AID 2288, 2010; active = well fitted rising curve with a large enough effect; inconclusive = small, poorly fitted or top-dose-only effect; inactive = no such curve, though single readings can be large or run the other way;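 further: % of control where 0% means no effect; miR-21 action dims this reporter so a rising signal means less miR-21 action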
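HeLa miR-21-FLuc reporter line, endogenous miR-21; 2000 cells/well in DMEM/10% FBS; compound titration up to ~40uM final, 48 h, 37 degree Celsius; luciferase detection reagent, 15 min lysis, CCD luminescence.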
* hit, by the source's call; ? = inconclusive. Some of the compounds tested (hit frequency here may not be typical).

SMILES	miR-21 reporter
Cc1cccc(NC(=O)c2sc(-n3nc(C)c(CCC(C)C)c3C)nc2C)c1	-10.3%
Cc1cccc(CNC(=O)CCCN2C(=O)c3cccnc3Oc3ccccc32)c1	0.9%
Cn1cc(S(=O)(=O)N2CCCCC2)cc1C(=O)NCc1ccc(Cl)cc1	?
COc1ccc(S(=O)(=O)Nc2cc3c(cc2NCc2ccccc2)n(C)c(=O)n3C)cc1	-49.6%
CSc1ccc(CNC(=O)c2ccc(NC(=O)c3nsc4ccccc34)cc2)cc1	-63.9%
Cn1c(=O)oc2cc(S(=O)(=O)NC(CC(=O)O)c3cccc(Br)c3)ccc21 (stereo not given)	-2.6%
CCOc1ccc(C(=O)Nc2cc3c(cc2N2CCCC2)n(C)c(=O)c(=O)n3C)cc1OCC	0.2%
CCOC(=O)c1cc(S(=O)(=O)Nc2ccccc2)[nH]n1	0.8%
COC(=O)CC1Oc2ccc(Cl)cc2-n2cc(-c3ccc(F)cc3)nc21 (stereo not given)	5.0%
COc1cc(CCC(=O)NCc2ccc3c(c2)CCN3C(=O)c2cccc(C)c2)cc(OC)c1OC	?
N#C/C(=C\c1ccc(F)cc1)C(=O)NCC1CCCO1 (stereo not given)	0.7%
Cc1cc(C)c(S(=O)(=O)NCCc2csc3nc(-c4ccc(Cl)cc4)nn23)c(C)c1	15.2%
COc1ccc(-c2cc(C(=O)NCCc3ccc(OC)c(OC)c3)c3ccccc3n2)cc1	-7.6%
COc1ccc(CNC(=O)CCC(=O)N2CCSc3ccccc32)cc1	2.1%
CCOC(=O)c1ccc(N2C(=O)c3[nH]nc(-c4ccc(OCC)cc4)c3C2c2ccc(OC)cc2OC)cc1 (stereo not given)	-1.1%
CCCn1c(=O)sc2cc(NC(=O)c3ccc(OC)c(Br)c3)ccc21	23.7%
CCOCCOC(=O)c1ccc(NC(=O)/C=C/c2ccc(OC)c(OC)c2)cc1	2.7%
COc1ccc(-c2cc(C(=O)Nc3c(Cl)cccc3Cl)no2)cc1OC	-37.7%
COc1cccc(-c2noc(-c3cc(C(C)C)[nH]n3)n2)c1OC	-57.0%
CCOc1ccccc1C(=O)NCc1nc2cccnc2n1Cc1ccc(C)cc1	12.8%
COc1ccc(C2NC(=O)N(C)C3=C2C(=O)N(c2cccc(C(=O)O)c2)C3)cc1 (stereo not given)	0.6%
COc1ccc(CNC(=O)C2CCCN(C(=O)c3cnn(-c4ccc(F)cc4)c3-n3cccc3)C2)cc1 (stereo not given)	6.9%
Cc1ccc(CN(C(=O)COc2ccc(Cl)cc2)c2ccccn2)o1	-43.0%
COc1ccccc1N1CCN(C(=O)Cn2c(=O)n3nc(-c4cccc(F)c4)nc3c3ccccc32)CC1	-0.8%
Cc1ccc(S(=O)Cc2nc(-c3ccc(C(=O)NC(C)c4ccccc4)cc3)oc2C)cc1 (stereo not given)	9.7%
CC(=O)N1CCc2c(sc3c2c(=O)n(CCc2ccccc2)c(=O)n3Cc2ccc(Cl)cc2)C1	27.4%
CCN(C(=O)Cn1nnc2sc3c(c2c1=O)CCC(C(C)(C)C)C3)c1cccc(C)c1 (stereo not given)	8.3%
Cc1ccc(CN2CCSc3ccc(C(=O)Nc4ccc(F)cc4F)cc32)cc1	-11.2%
CN(Cc1ccccc1)C(=O)c1nc(-c2ccc(Cl)cc2)n2c1CCCCC2	-0.4%
O=C(CSc1nc(-c2cccc(F)c2)[nH]c1-c1ccccc1)Nc1ccc2c(c1)OCCO2	?
COc1ccc(-c2cc(C)no2)cc1S(=O)(=O)NCc1ccco1	17.7%
CC(CNC(=O)c1nnc(Cc2cccc(F)c2)o1)c1ccccc1 (stereo not given)	-15.4%
O=C(Cn1ncc2c3ccccc3n(Cc3ccc(F)cc3)c2c1=O)NCCC1=CCCCC1	3.0%
Cc1ccc(NC(=O)CN(C)S(=O)(=O)c2cnc[nH]2)cc1	-9.8%
CC(=O)c1ccc(NC(=O)c2ccc(-c3ccc(Cl)cc3)o2)cc1	11.9%
COc1ccccc1Cc1nc2ccccc2nc1SCC(=O)NCc1ccc(C)cc1	-2.6%
Cc1ccc2c(=O)cc(C(=O)Nc3c(C(=O)Nc4cccc(Cl)c4)oc4ccccc34)oc2c1	-0.4%
CN1c2ccc(Cl)cc2-c2nc(SCC(=O)Nc3cc(F)ccc3F)ncc2S1(=O)=O	19.0%
Cc1oc(-c2ccc(Cl)cc2)nc1CS(=O)CC(=O)NCCc1ccccc1 (stereo not given)	-15.9%
Cc1ccc(CN(C(=O)COc2ccc([N+](=O)[O-])cc2)c2ccccn2)cc1	3.1%
CCOc1ccc(CNC(=O)C2=Cc3cc(Br)ccc3OC2)cc1OC	-2.4%
Cc1sc(-c2cc3c([nH]c2=O)CC(c2ccccc2)CC3=O)nc1-c1ccc(Cl)cc1 (stereo not given)	24.4%
COc1cccc(NC(=O)Cn2c(=O)n(CCc3ccc(OC)c(OC)c3)c(=O)c3ccccc32)c1	-1.5%
COc1cc(NC(=O)CCS(=O)(=O)c2nc(-c3cccs3)cc(C(F)(F)F)n2)cc(OC)c1OC	20.6%
CCCCc1nn2c(=O)cc(COC(=O)C(C)Oc3ccccc3)nc2s1 (stereo not given)	-0.8%
Cc1ccccc1OCC(=O)Nc1ccc2nc(SCC(=O)N3CCCC3)sc2c1	6.5%
CCOC(=O)c1ccc(N2C(=O)c3n[nH]c(-c4ccco4)c3C2c2ccc(O)cc2)cc1 (stereo not given)	26.5%
COc1cc(C2c3c(oc4ccccc4c3=O)C(=O)N2Cc2ccc(C)cc2)ccc1O (stereo not given)	-0.4%
Cc1cccc(Cn2cc(S(=O)(=O)c3ccc(Cl)cc3)c(=O)c3cc4c(cc32)OCO4)c1	-0.7%
COc1cc(OC)cc(N2C(=O)CSC23C(=O)Nc2ccccc23)c1 (stereo not given)	0.3%
Cc1ccc(Cl)cc1N1CCN(C(=O)CCCCCn2c(=O)[nH]c3ccccc3c2=O)CC1	26.7%
O=C(CN1CCCN(Cc2ccccc2Cl)S1(=O)=O)NCc1ccccc1	-3.8%
O=C(CNC(=O)c1ccc(Cl)cc1)OCc1cc(=O)n2nc(C3CCCCC3)sc2n1	-2.7%
O=C(NC1CC(=O)N(c2ccccc2)C1)c1ccc(S(=O)(=O)N2CCCCC2)cc1 (stereo not given)	6.5%
COc1cccc(N2CCN(C(=O)C3Cc4ccccc4N3C(C)=O)CC2)c1 (stereo not given)	-0.9%
CCOc1ccc(Nc2nc(Nc3ccc(OCC)cc3)nc(N3CCOCC3)n2)cc1	-9.1%
COc1cccc(-c2nc(SCC(=O)NCc3ccco3)c3c(=O)n(C)c(=O)n(C)c3n2)c1	1.8%
O=S(=O)(Nc1ccc(-c2ccc(N3CCCC3)nn2)cc1)c1cccc(C(F)(F)F)c1	-5.6%
O=C(NCc1ccccc1Cl)c1ccc2c(c1)NC(=O)C(CS(=O)(=O)Cc1ccc(F)cc1Cl)N2 (stereo not given)	-7.5%
COc1ccccc1NC(=O)c1cc2c(-c3ccccc3)nn(-c3ccccc3)c2s1	-15.7%
Later entries:
SMILES	miR-21 reporter
CC(C)c1ccc(NC(=O)[C@H]2O[C@@H]3OC(C)(C)O[C@@H]3[C@H]3OC(C)(C)O[C@H]32)cc1	3.7%
O=C(NCC(c1ccco1)S(=O)(=O)c1cccs1)c1ccccc1 (stereo not given)	-7.5%
CCc1ccc(NC(=O)c2nnn(Cc3cccc(C(F)(F)F)c3)c2N)cc1	-0.6%
Cc1ccc(CN2C(=O)c3ccccc3Sc3ccc(C(=O)N4CCOCC4)cc32)cc1	13.2%
O=C(CSc1ccc2nc(-c3ccccc3)cn2n1)Nc1cccc(F)c1	-49.2%
COc1ccc(CNC(=O)C(CCSC)NS(=O)(=O)c2ccc3c(c2)oc(=O)n3C)cc1 (stereo not given)	-0.7%
Cc1cc(C)c(/C=C/c2onc(C)c2S(=O)(=O)N2CCC(C(=O)N(C)Cc3ccccc3)CC2)c(C)c1	-2.6%
Cc1cccc(N2C(=O)CSC23C(=O)N(Cc2cccc(F)c2)c2ccccc23)c1 (stereo not given)	8.6%
Cc1ccccc1NC(=O)CSc1nc2ccc(NC(=O)c3ccccc3)cc2s1	10.5%
CCCOC(=O)c1ccc(NC(=O)Cc2csc(C)n2)cc1	-2.1%
COC(=O)c1cc(NC(=O)c2sc3ccccc3c2Cl)cc(C(=O)OC)c1	-4.3%
CCCN1Cc2cccc(C(=O)Nc3cc(C)cc(C)c3)c2C1=O	2.8%
COc1ccc(-c2noc(CSc3nnc(-c4ccncc4)n3-c3ccc(C)c(C)c3)n2)cc1	5.5%
COc1ccc(OC)c(NC(=O)CSc2ccc(-c3cccs3)nn2)c1	-17.3%
COC(=O)C1=C(C)N(Cc2ccccc2)C(=NCc2ccco2)N[C@H]1c1ccc(Br)cc1	?
COc1ccc(OC)c(NC(=O)CCc2c(C)nc3c(-c4ccccc4)c(C)nn3c2C)c1	?
CCOc1cccc(CC(=O)NCc2ccc3c(c2)CCN3C(C)=O)c1OCC	-9.7%
O=C(Cc1ccc(Cl)cc1)NCC(c1cccs1)S(=O)(=O)c1ccc(F)cc1 (stereo not given)	12.6%
O=S(=O)(NCc1ccccc1Cl)c1ccc(N2CCCCS2(=O)=O)cc1	-0.5%
O=C(c1ccc2c(c1)N(Cc1ccccc1)C(=O)c1ccccc1S2(=O)=O)N1CCOCC1	0.1%
CCOc1ccc(NC(=O)Cn2cc(C(=O)c3ccc(CC)cc3)c(=O)c3ccc(C)nc32)cc1	-5.7%
COc1ccc(OC)c(CNC(=O)c2cc3cc4ccc(OC)cc4nc3o2)c1	-1.1%
COc1ccc(Nc2cc(C(=O)NC3CCC(C)CC3)c3ccccc3n2)cc1OC (stereo not given)	-0.4%
Cc1ccc(CCNC(=O)c2cccc(Nc3nc4ccccc4nc3-n3nc(C)cc3C)c2)cc1	-1.0%
CCCCN(C)CCNC(=O)c1c(C)oc2ncnc(N3CCOCC3)c12	-2.8%
COc1cccc(NC(=O)N(Cc2c[nH]c3ccccc23)C2CCCCC2)c1	-32.0%
CCc1ccc(-n2nc3cc(C)c(NC(=O)c4cccc5ccccc45)cc3n2)cc1	-35.1%
CCOc1ccccc1CNC(=O)c1ccc(CS(=O)Cc2cccc(Cl)c2)o1 (stereo not given)	8.7%
COc1ccc(-n2nnnc2C2CCN(S(=O)(=O)c3ccc(C(C)(C)C)cc3)CC2)cc1	5.1%
CC(=O)c1cc(-c2ccccc2)n(CCC(=O)NCCc2ccccc2)c1C	2.0%
Cc1ccc(S(=O)(=O)N2CCCc3cc(NS(=O)(=O)c4cc(C)ccc4C)ccc32)cc1	25.6%
COc1ccc(S(=O)(=O)N2Cc3ccccc3CC2C(=O)Nc2ccc(C)cc2C)cc1OC (stereo not given)	4.2%
O=C(Cn1cc(S(=O)(=O)Cc2cccc(Cl)c2)c2ccccc21)Nc1ccccc1Cl	-2.0%
Cc1ccc(NC(=O)CSc2nc3c(c(=O)[nH]2)CCC3)cc1Cl	-4.8%
CCOc1ccc2nc(N3CCN(C(=O)c4ccc5c(c4)CCCC5)CC3)sc2c1	-3.3%
Cc1cccc(OCC(=O)Nc2c(C)ccc3nsnc23)c1C	-10.0%

Some of the entries so far, comma-delimited.
Compound,miR-21 reporter
COc1cccc(NC(=O)N(Cc2c[nH]c3ccccc23)C2CCCCC2)c1,-32.0%
CCc1ccc(-n2nc3cc(C)c(NC(=O)c4cccc5ccccc45)cc3n2)cc1,-35.1%
CCOc1ccccc1CNC(=O)c1ccc(CS(=O)Cc2cccc(Cl)c2)o1 (stereo not given),8.7%
COc1ccc(-n2nnnc2C2CCN(S(=O)(=O)c3ccc(C(C)(C)C)cc3)CC2)cc1,5.1%

Additional records.
SMILES	miR-21 reporter
COc1ccc(Cl)cc1NC(=O)Cn1c(=O)c(-c2ccccc2NC(C)=O)nc2ccccc21	-6.3%
CC(C)(C)C(=O)Cn1c(=O)n(-c2ccc(Cl)cc2)c(=O)c2c3c(sc21)CCCC3	-0.3%
Cc1ccc(C)c(NC(=O)CSc2nc(=O)n(CCN(C)C)c3c2CCC3)c1	-4.0%
COc1ccc(CCNC(=O)C(=O)NCC(c2cccs2)S(=O)(=O)c2ccccc2)cc1 (stereo not given)	-1.8%
CC(=O)c1ccc(NC(=O)c2ccc(CN3C(=O)CCn4nc(C)cc43)cc2)cc1	-19.6%
Cc1cc2c(cc3c(SCC(=O)Nc4cccc(Cl)c4C)nnc(C)n32)o1	-0.6%
CCOc1ccc(-c2csc3ncnc(Nc4cccc(O)c4)c23)cc1	5.4%

By substructure, the entries above with a thiophene ring, fused or not.
SMILES	miR-21 reporter
CC(=O)N1CCc2c(sc3c2c(=O)n(CCc2ccccc2)c(=O)n3Cc2ccc(Cl)cc2)C1	27.4%
CCN(C(=O)Cn1nnc2sc3c(c2c1=O)CCC(C(C)(C)C)C3)c1cccc(C)c1 (stereo not given)	8.3%
COc1cc(NC(=O)CCS(=O)(=O)c2nc(-c3cccs3)cc(C(F)(F)F)n2)cc(OC)c1OC	20.6%
COc1ccccc1NC(=O)c1cc2c(-c3ccccc3)nn(-c3ccccc3)c2s1	-15.7%
O=C(NCC(c1ccco1)S(=O)(=O)c1cccs1)c1ccccc1 (stereo not given)	-7.5%
COC(=O)c1cc(NC(=O)c2sc3ccccc3c2Cl)cc(C(=O)OC)c1	-4.3%
COc1ccc(OC)c(NC(=O)CSc2ccc(-c3cccs3)nn2)c1	-17.3%
O=C(Cc1ccc(Cl)cc1)NCC(c1cccs1)S(=O)(=O)c1ccc(F)cc1 (stereo not given)	12.6%
CC(C)(C)C(=O)Cn1c(=O)n(-c2ccc(Cl)cc2)c(=O)c2c3c(sc21)CCCC3	-0.3%
COc1ccc(CCNC(=O)C(=O)NCC(c2cccs2)S(=O)(=O)c2ccccc2)cc1 (stereo not given)	-1.8%
CCOc1ccc(-c2csc3ncnc(Nc4cccc(O)c4)c23)cc1	5.4%
